Screening results as filed in PubChem.
Sfp PPTase inh: blocks B. subtilis Sfp PPTase activity; 3.5% of 310,000 active; Biochemical Sfp PPTase activity, qHTS; Potency, µM, inactives show max response, negative = inhibition, usual class: inhibitors; Q9F4F7; active means well fitted inhibition curve with a large enough effect; inconclusive means small, poorly fitted or top-dose-only effect, or another doubt; inactive means no such curve, though single readings can be large or run the other way;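 further: the enzyme is Sfp with the accession as filed and its product quenches rhodamine fluorescence; potency means the concentration at half of the fitted maximal effect; 0% = enzyme reaction without inhibitor and -100% = no enzyme wells; top concentration of the series not given in the record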
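After 15 min at room temperature with compound, 15 nM Sfp received 5 uM rhodamine-CoA plus 12.5 uM BHQ-2-ybbR (50 mM Hepes pH 7.6, 10 mM MgCl2). Rate came from the fluorescence difference over 30 min, ex 525/em 598 nm.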
TRPML1 ag: activates the human TRPML1 channel. TRPML1-expressing cells, Ca2+ dye fluorescence, FDSS; host cell line not named in the record; reference of the full effect not given here. 0.12% of 410,000 active. activation, % (test concentration not listed). Q9GZU1; in the data active = activation above about 50%; inconclusive = about 30% to 50%; inactive = below about 30%; further: 0% is about no effect; the text of the record puts the active cut at 80%
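In this qHTS format, compounds were pin-transferred onto Ca8-dye-loaded TRPML1-DL cells induced with Tet overnight, and intracellular Ca2+ fluorescence was recorded kinetically for 110 s after a 10 s baseline. A subsequent 4uM final 54-4 (EC80) addition followed by a second 110 s read served as the antagonist phase.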
Menin-MLL FL inh: menin-MLL binding inhibition, fluorescein peptide | Fluorescence polarization, fluorescein-MLL peptide displacement from menin | FP activity change, % at 61.4 µM | 290,000 tested, under 10 active; inconclusive = falling polarisation curve, or a change in total fluorescence; inactive = total fluorescence flat and polarisation flat or rising; no compound was filed as active; the % refers to the polarisation; negative = inhibition;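 further: % of control where 0% means no effect; inhibitors lower the polarisation; unlabelled MLL peptide was the positive control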
PINK1 expr mod: changes PINK1 expression; Potency, µM (doses to about 76.6 µM), for the others: top-dose activation (PINK1 increase), actives largely listed as activators; AID 624263; PINK1 immunofluorescence, high-content cytometry, 24 h; 0.2% of 410,000 active; active = well fitted activation curve with a large enough effect; inconclusive = small, poorly fitted or top-dose-only effect; inactive = flat fitted curve, though single readings scatter; cell line not stated here;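 further: potency means the concentration at half of the fitted maximal effect; % of control where 0% means no effect; nearly all actives have a fitted effect of over 65% in size; a mitochondrial uncoupler was the plate control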
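Fluorescence from anti-PINK1 antibody, together with nuclear and cell stains, was scanned on a laser-scanning cytometer. Before staining, stable-line cells were incubated 24 hours with compounds at 5 concentrations; primary antibody 12 h at 10 degrees C.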
TRPML1 blocker: inhibitors of human TRPML1 channel; Q9GZU1; TRPML1-inducible cells, Ca2+ dye fluorescence, FDSS; hits give low values; inhibition of EC80 agonist-evoked calcium signal; activity change, negative = inhibition, % (no concentration beside the values); 0.02% of 390,000 active; in the data active means activity change below about -50%; inconclusive means about -30% to -50%; inactive means above about -30%;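 further: stimulus is agonist 54-4 at its EC80 concentration; on the % scale 0 is the no-effect control and ±100 the full control effect; compound concentration not given in the record; the text of the record puts the active cut at -80%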
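Calcium fluorescence in TRPML1-DL cells induced overnight with Tet: a 110 s read after compound pin addition, then a 110 s antagonist read after challenge with 54-4 at 4 uM final (EC80).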
ClpP mod: qHTS Assay for Activators of ClpP | ATP-dependent Clp protease proteolytic subunit (Bacillus subtilis (strain 168)), P80244 | purified B. subtilis ClpP, FRET peptide cleavage, 20 min | 1.9% of 340,000 active | Potency, µM (titrated, usually from 57.5 µM), for inactives: top-dose activity change, negative = active | AID 651965, 2013; active = well fitted falling curve with a large enough effect; inconclusive = small, poorly fitted or top-dose-only effect; inactive = no such curve, though single readings can be large or run the other way; further: potency means the concentration at half of the fitted maximal effect; the source files actives as falling curves though it sought activators and does not explain the sign; nearly all actives have a fitted effect of over 65% in size; many hits overshoot -100%
Target sequence (P80244 whole entry, looked up): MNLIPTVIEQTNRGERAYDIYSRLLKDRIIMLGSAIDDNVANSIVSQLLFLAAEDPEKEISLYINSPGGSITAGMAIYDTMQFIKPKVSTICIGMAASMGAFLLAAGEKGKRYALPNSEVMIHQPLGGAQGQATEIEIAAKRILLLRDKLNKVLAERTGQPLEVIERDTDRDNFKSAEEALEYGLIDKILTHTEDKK
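ClpP 10 microg/mL final, pH 8 Tris/KCl buffer with BSA, glycerol, Tween-20; compound pinned in; FRET-FV substrate; RT 20 min; Ex320/Em430; ΔFRET vs ADEP 5.8 microM, DMSO, no enzyme.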
TRPV1 potentiator: enhances activation of the human vanilloid receptor TRPV1. Q8NER1. potentiation, % at 8.33 µM. TRPV1-expressing cells, Fluo-8 calcium influx, capsaicin EC20 potentiation; host cell line not named in the record; control for the full effect not named in the record. 0.02% of 320,000 active. AID 540277; active means potentiation above 80%; inconclusive means 30% to 80%; inactive means below 30%; further: 0% is about no effect
Target sequence (Q8NER1 whole entry, looked up): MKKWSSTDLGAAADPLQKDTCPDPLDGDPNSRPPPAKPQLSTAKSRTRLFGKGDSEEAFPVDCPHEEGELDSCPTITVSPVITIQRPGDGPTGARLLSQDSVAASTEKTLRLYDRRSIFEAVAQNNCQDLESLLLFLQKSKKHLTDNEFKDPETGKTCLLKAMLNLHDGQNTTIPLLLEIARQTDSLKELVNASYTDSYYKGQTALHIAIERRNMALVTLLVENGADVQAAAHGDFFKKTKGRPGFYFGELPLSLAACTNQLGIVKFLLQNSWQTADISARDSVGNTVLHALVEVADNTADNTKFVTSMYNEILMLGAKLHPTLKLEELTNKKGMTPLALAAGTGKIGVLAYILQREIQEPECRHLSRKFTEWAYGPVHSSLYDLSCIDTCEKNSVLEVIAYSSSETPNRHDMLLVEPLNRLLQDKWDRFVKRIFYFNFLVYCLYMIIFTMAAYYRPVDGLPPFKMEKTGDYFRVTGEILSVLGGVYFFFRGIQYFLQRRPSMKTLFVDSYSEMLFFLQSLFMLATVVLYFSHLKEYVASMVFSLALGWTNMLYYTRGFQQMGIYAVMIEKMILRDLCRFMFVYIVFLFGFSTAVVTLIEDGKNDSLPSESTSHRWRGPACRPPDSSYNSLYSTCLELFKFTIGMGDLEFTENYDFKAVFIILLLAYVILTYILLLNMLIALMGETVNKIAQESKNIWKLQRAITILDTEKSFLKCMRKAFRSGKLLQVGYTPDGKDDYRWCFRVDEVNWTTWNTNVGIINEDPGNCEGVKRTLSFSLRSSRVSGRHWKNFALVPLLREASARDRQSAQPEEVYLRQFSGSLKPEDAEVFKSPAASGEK
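TRPV1-expressing cells were cultured overnight at 35.5C and loaded with Fluo-8 calcium dye for 40 to 90 min at room temperature. After a 10 s baseline, compound was added and calcium influx was read kinetically for 3 min (ex 480/em 520 nm).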
The depositor's hits bear a star; ? = inconclusive; · = no result given; [ ] = dose if it differs, or a comment.

SMILES	Sfp PPTase inh	TRPML1 ag	Menin-MLL FL inh	PINK1 expr mod	TRPML1 blocker	ClpP mod	TRPV1 potentiator
Cc1nn(-c2ccccn2)c2c1C(=O)CC(C)(C)C2Br (configuration not stated)	-3%	·	5.2	6.3%	·	0.6%	-13
COc1ccc(NC(c2nnc(-c3ccccc3)o2)c2ccccc2F)cc1Cl (configuration not stated)	·	0.0	·	1.8%	10	-2.8%	·
CCCCC[C@@H]1C=C(C(=O)O)[C@H](c2ccc(CC)cc2)N1S(=O)(=O)c1ccc(C)cc1	·	1.0	·	1.1%	6	-0.4%	·
O=C(CSC1=NC(=O)C(c2ccccc2)C(=O)N1)Nc1ccccc1Cl (configuration not stated)	21%	-0.4	0.1	1.8%	12	-28%	6
CCOc1cc(C(=O)Nc2ccc(C)cc2O)ccc1OCC(=O)N1CCOCC1	·	0.0	·	3.5%	6	-2.1%	-9
CCN(CC)S(=O)(=O)c1ccc(C)c(NC(=S)N2CCN(Cc3ccc4c(c3)OCO4)CC2)c1	8%	-0.1	1.3	-1.7%	28	·	-13
Cc1ccc(S(=O)(=O)N(C)CC(=O)NCCCc2ccccc2)cc1	7%	-0.2	-7.7	0.3%	1	-1.6%	-2
O=C(c1ccco1)N1CCN(C(=O)c2ccc(-c3cccc(C(F)(F)F)c3)o2)CC1	·	3.1	·	8.0%	5	·	-8
COc1cccc(NC(=O)CCN2CCC(C(N)=O)CC2)c1	7%	-0.5	2.6	-1.9%	-14	-2.0%	24
COc1cccc(CNC(=O)C2CCN(S(=O)(=O)c3ccc4c(c3)NC(=O)C(C)S4)CC2)c1 (configuration not stated)	14%	-1.2	7.6	1.9%	25	-2.4%	1

Part of the list above in a different format:
Results follow in this order: Sfp PPTase inh | TRPML1 ag | Menin-MLL FL inh | PINK1 expr mod | TRPML1 blocker | ClpP mod | TRPV1 potentiator
Cc1nn(-c2ccccn2)c2c1C(=O)CC(C)(C)C2Br (configuration not stated)
  -3% | · | 5.2 | 6.3% | · | 0.6% | -13
Cc1ccc(S(=O)(=O)N(C)CC(=O)NCCCc2ccccc2)cc1
  7% | -0.2 | -7.7 | 0.3% | 1 | -1.6% | -2
COc1cccc(NC(=O)CCN2CCC(C(N)=O)CC2)c1
  7% | -0.5 | 2.6 | -1.9% | -14 | -2.0% | 24
O=C(CSC1=NC(=O)C(c2ccccc2)C(=O)N1)Nc1ccccc1Cl (configuration not stated)
  21% | -0.4 | 0.1 | 1.8% | 12 | -28% | 6
COc1ccc(NC(c2nnc(-c3ccccc3)o2)c2ccccc2F)cc1Cl (configuration not stated)
  · | 0.0 | · | 1.8% | 10 | -2.8% | ·
CCOc1cc(C(=O)Nc2ccc(C)cc2O)ccc1OCC(=O)N1CCOCC1
  · | 0.0 | · | 3.5% | 6 | -2.1% | -9

Next results:
SMILES	Sfp PPTase inh	TRPML1 ag	Menin-MLL FL inh	PINK1 expr mod	TRPML1 blocker	ClpP mod	TRPV1 potentiator
COc1cc(CO)ccc1OCc1ccc(Cl)nc1	15%	0.4	3.5	1.5%	12	0.4%	-5
COc1ccccc1C(CNC(=O)c1cccc(S(=O)(=O)Nc2ccc(F)cc2)c1)N(C)C (configuration not stated)	·	4.8	·	-0.1%	43	-0.4%	?
CCc1ccc(-c2nc3cc(NC(=O)c4ccc(C)c(C)c4)ccc3o2)cc1	·	0.5	·	-0.8%	-13	4.0%	·
O=C1CC(NC(=O)c2ccc(Cl)cc2)C(=O)N1 (configuration not stated)	12%	·	-3.2	1.7%	·	0.3%	-4
CCOc1ccc(NC(=O)c2cc(C3CC3)nc3c2cnn3C(C)C)cc1OC	·	4.2	·	0.7%	15	-3.4%	16
CC(C)CNC(=O)C(=O)NCc1ccccc1	-7%	0.0	4.0	0.0%	-7	·	-17
CCOC(=O)C1(C(=O)OCC)CC1c1ccccc1 (configuration not stated)	13%	-0.5	-1.7	3.4%	-17	-0.9%	-2
Cc1ccc(S(=O)(=O)c2[nH]c(-c3ccccc3)nc2SCC(=O)O)cc1	·	1.8	·	0.4%	-28	-3.5%	·
CN(C)S(=O)(=O)NCC1CCCN(Cc2cc3ccccc3s2)C1 (configuration not stated)	·	4.0	·	-2.9%	-4	-3.2%	·
Cc1ccc(S(=O)(=O)c2c(Nc3cc(C)ccc3C)sc(C(=O)c3ccc4c(c3)OCO4)c2N)cc1	·	3.5	·	7.4%	1	-10%	·
COc1ccc(NC(=O)N2CCc3ccccc3C2)cc1OC	17%	-0.4	6.8	-0.7%	-8	-1.0%	-9
O=C(O)Cc1ccc(NC(=O)C2CC=CCC2C(=O)O)cc1 (configuration not stated)	-9%	·	3.3	·	·	·	-6
O=C(CSC1=NCCS1)NC(c1ccccc1)c1ccccc1	14%	0.7	2.3	1.8%	-8	0.9%	16
CCCN1/C(=C(\C#N)C2=NS(=O)(=O)c3ccccc32)N(C)c2ccccc21	·	0.7	·	1.9%	15	·	·
CCOC(=O)N1CCN(Cc2ccc(O)c3ncccc23)CC1	24%	0.0	-1.3	?	-2	·	-9
COC(=O)c1ccc(/C=N\NC(=O)c2c(C)nc3ccc(Cl)cn23)cc1	1%	·	4.1	12%	·	1.2%	17
CCn1c(=O)c(C(=O)CC#N)c(N)n(Cc2ccccc2)c1=O	6%	0.6	6.2	-0.1%	4	0.0%	·
NC(=O)c1nsc(C(=O)N(CC(=O)NC2CCCC2)c2cnc3ccccc3c2)c1N	-3%	·	-0.2	·	·	·	-8
Cc1ccc(NC2=NCCC2)cc1Cl	-6%	-1.4	6.1	-0.7%	0	0.7%	2
Cc1ccc(-n2c(C)cc(/C=N/NC(=O)Cn3c4ccccc4c(=O)c4ccccc43)c2C)cc1	4%	0.2	0.2	8.7%	30	·	3
CCOC(=O)C1CCN(C(=O)c2cccc(Cl)c2)CC1	6%	0.8	-1.1	4.2%[38.3 µM]	0	-0.8%	7
CCC(C)C1NC(=S)N(Cc2ccccc2)C1=O (configuration not stated)	-11%	-0.6	1.9	1.4%	-3	-2.5%	-23
COc1cc(/C=N/N2CCOCC2)ccc1OCc1ccc(Cl)cc1	-6%	1.1	-5.5	4.3%	10	·	-1
Cc1cccc(OCCCC(=O)N2CCCc3ccccc32)c1C	?	3.8	4.8	4.3%[38.3 µM]	12	-0.7%	-14
Cc1cc(OC(C)C(=O)Nc2cccc(-c3nc4ccccc4o3)c2)cc(C)c1Cl (configuration not stated)	·	0.3	·	2.7%	-14	?	·
CCCC(=O)N1N=C(c2ccccc2)CC1c1cn(C)c2ccccc12 (configuration not stated)	-22%	2.9	2.6	-2.2%	34	?	-15
O=C(CCc1ccccc1)Nc1ccnn1C1CCN(Cc2ccc(OCCO)cc2)CC1	5%	-0.6	·	-0.9%	3	-0.1%	-4
CC1(C)CC(NC(=O)c2cc(S(=O)(=O)N3CCCCC3)ccc2Cl)CC(C)(C)N1	23%	-0.4	·	1.3%	-8	1.0%	2
Cc1ccc(OCCCn2ccnc2)cc1C	15%	-0.8	2.6	-0.1%	14	-1.1%	?
O=C(Cc1ccccc1)NCc1ccc(-n2cccc2)cc1	2%	2.1	1.8	6.4%	-21	-1.2%	-10
Cc1ccc(CNC(=O)C2CCCCN2S(=O)(=O)c2ccccc2)cc1 (configuration not stated)	10%	-0.3	-1.0	-0.3%	5	·	-6
C=CCNC(=O)COc1coc(CN2CCN(C(=O)c3ccco3)CC2)cc1=O	·	1.8	·	1.5%	40	-26%	-4
COC(=O)c1cc(NS(=O)(=O)c2ccc(F)cc2)ccc1N1CCOCC1	18%	0.8	2.4	-0.3%	?	-0.9%	2
COc1ccc(-c2nc(C)c(CCNC(=O)C(=O)Nc3cc(C)cc(C)c3)s2)cc1OC	·	5.0	·	0.2%	-8	?	·
Cc1ccccc1C(=O)NNC(=O)c1ccc(F)cc1	9%	1.8	0.0	-3.5%	-12	0.0%	·
Cc1ccc(NNC(=O)c2ccc(Cl)cc2)nn1	?	0.3	5.2	1.6%	15	1.5%	·
Cc1ccc(-n2cc(CN3CCC(CO)(Cc4cccc(C(F)(F)F)c4)CC3)cn2)cc1	-3%	0.5	-1.8	-2.1%	25	·	-4
O=C(CCC(=O)NNC(=O)c1ccccc1[N+](=O)[O-])NCc1ccccc1	23%	0.3	1.9	-0.2%	-1	·	1
CCOc1ccccc1CNC(=O)C1CCCN(c2ncnc3c2nc2n3CCCCC2)C1 (configuration not stated)	5%	1.3	-1.6	2.6%	2	·	-10
CCOC(=O)c1c(C)n(C)c2ccc(OCC(O)Cn3c(C)nc4ccccc43)cc12 (configuration not stated)	?	1.5	-2.9	0.9%[38.3 µM]	25	-21%	5
O=C(CSc1n[nH]c(=O)n1Cc1ccco1)c1ccc(F)cc1	4%	1.0	5.0	-0.8%	-10	-1.4%	0
Cc1ccc(C(=O)N(C)Cc2ccc(N3CCOCC3)cc2)cc1S(=O)(=O)NCc1ccccc1	·	0.5	·	-1.6%	5	-3.5%	8
N#Cc1ccc(C(=O)N2CCN(c3nc4ccc(F)cc4s3)CC2)cc1	·	1.5	·	1.7%	11	-2.2%	·
CCOc1ccc(N(CC(=O)NCCc2ccccc2)S(=O)(=O)c2ccccc2)cc1	-4%	3.0	-0.5	6.5%	25	·	-5
Cc1ccc(C(=O)OC(C)CN2CCN(C)CC2)cc1 (configuration not stated)	-8%	1.0	5.1	1.4%	-7	·	2
CCCS(=O)(=O)N1CCN=C1SCc1ccc(F)cc1	19%	0.3	·	1.9%	-5	1.2%	-4
O=C(CCN1CCN(Cc2ccccc2)CC1)NNC(=O)c1cc2ccccc2o1	·	-0.5	·	-1.1%	6	-0.5%	·
CN(N=O)c1ccc(/C=C2\C=Cc3ccccc32)cc1	·	-0.6	·	0.6%	·	0.2%	·
O=C(CSc1ccccc1)NC(=O)NCc1ccccc1	7%	0.7	-0.4	-0.1%	-11	-0.2%	-4
O=C(N/N=C/c1ccc(O)c(O)c1)c1cc(-c2ccccc2)nc2ccccc12	0%	-0.6	-1.3	2.2%	-27	-1.6%	-4
CCc1nc2c3cnn(-c4cc(Cl)ccc4C)c3ncn2n1	-3%	-1.1	2.1	1.7%	0	-6.8%	-21
Cc1ccccc1NC(=O)c1sc2nc(N3CCOCC3)c3c(c2c1N)CC(C)(C)OC3	·	0.2	·	-4.2%	14	-28%	·
CCN(CC(=O)Nc1ccc(NC(C)=O)cc1)C(=O)c1ccccc1Sc1ccccc1C#N	·	0.6	·	-0.7%	-3	-8.8%	4
